HSD17B inh: inhibitors of human HSD17B10 dehydrogenase; AID 893; actives 7.6% (n = 75,000); recombinant HSD17B10, NADH fluorescence kinetic; many of its hits are not listed in these tables; Potency, µM (titrated, usually from 57.1 µM), for inactives: top-dose activity change, negative = inhibition, hits mostly inhibitors; active = well fitted inhibition curve with a large enough effect; inconclusive = small, poorly fitted or top-dose-only effect; inactive = no such curve, though single readings can be large or run the other way;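 also: the protocol describes HADH2 (HSD17B10) and not the HSD17B4 of the title; nearly all actives have a fitted effect of over 70% in size; most hits overshoot -100% by far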
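His-tagged E. coli-expressed HADH2 at 20 nM in 100 mM Tris-HCl pH 9.0 with 0.01 % Tween-20, preincubated 15 min with compound at room temperature. Reaction with 1 mM NAD+ and 90 uM beta-hydroxybutyryl coenzyme A; NADH fluorescence (360/450 nm) read kinetically over 4 min, last minus first point.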
The depositor's hits bear a star; ? = inconclusive; & = joins results of further samples; [ ] = dose if it differs, or a comment. % is scaled to controls: 0 for no effect and ±100 for the full control effect; potency is read from the fitted curve at half-maximal effect.

SMILES	HSD17B inh
CCn1c2ccccc2c2cc(NC(=O)C3CCN(S(=O)(=O)c4cccs4)CC3)ccc21	3.0%
Cc1ccc(S(=O)(=O)NCCC(=O)OCn2nnc3ccccc3c2=O)cc1	-1.0%
O=c1cc(CO)oc(CN2CCN(c3ccccc3)CC2)c1O	-4.8%
CCC(C)(C)n1nnnc1C(c1ccc(N(C)C)cc1)N1CCN(C2CCCCC2)CC1 (centres undefined)	0.8%
Cc1ccc(S(=O)(=O)N2CCC(C(=O)N[C@@H](C)C(=O)NC3CCCCC3)CC2)cc1	-0.4%
COC(=O)[C@H](NC(=O)c1cc(-c2ccccc2)nc2ccccc12)c1ccccc1	?
Cc1c(Nc2nc3ccccc3nc2N2CCN(c3ccccc3)CC2)c(=O)n(-c2ccccc2)n1C	9.9%
COc1ccccc1-c1noc(-c2ccco2)n1	-7.1%
O=C(NCc1ccc2c(c1)OCO2)c1ccc2c(c1)C(=O)N(CC1CCCO1)C2=O (centres undefined)	4.3%
COCCNc1nc(-c2c(C)noc2C)nc2ccccc12	?
CCOCCCNC(=O)C1CCN(S(=O)(=O)c2c(C)noc2/C=C\c2ccc(OC)cc2)CC1	?
COc1cccc(OCC(O)CN2C(C)CCCC2C)c1 (centres undefined)	0.5%
CCOc1ccc(C(=O)N2CCC(C(=O)c3ccc4c(c3)OCCO4)CC2)cc1	-5.4%
CCCCCCNS(=O)(=O)c1ccc(OC)c(OC)c1	5.6%
CC(C)(CCc1nc2ccccc2[nH]1)C(=O)O	-5.4%[11.4 µM]
CN1CCN(CC#CCC(O)(c2ccccc2)C2CCCC2)CC1 (centres undefined)	1.6%
CN1CCc2cc(Cl)c(O)cc2[C@@H](c2ccccc2)C1	-17.8%
CC1CCN(C(=O)C2CCN(C(=O)c3cc4sccc4n3Cc3ccc(F)cc3)CC2)CC1	-1.3%
O=C(NCC(c1cccnc1)N1CCN(c2ccccc2F)CC1)c1cccc(Cl)c1 (centres undefined)	3.9%
COc1ccc(C(=O)NCc2cn3ccsc3n2)cc1OC	7.7%
CC1CCC2C(=O)N3C(CCC(C)[C@@H]3c3cccc(N4CCOCC4)c3)C(=O)N2C1c1cccc(N2CCOCC2)c1 (some centres undefined)	4.7%[11.4 µM]
CCN1C(=O)C(CC(=O)NCc2ccc(Cl)cc2)N(CC)C1=O (centres undefined)	9.6%
Cc1oc(-c2ccc(Cl)cc2)[n+]([O-])c1C	-0.2%
Cc1csc2nc(CSc3ccc(Cl)cc3)cn12	?
COc1ccc(N2Cc3cccc(C(=O)N4CCN(C(=O)c5ccco5)CC4)c3C2=O)cc1	12.6µM*
COc1cc2c(cc1OC)-c1cc(NC3CCCCCC3)nc(=O)n1CC2	25.1µM*
O=C(c1cc2c(=O)oc3ccccc3c2s1)N1CCOCC1	4.1%
COc1cccc(C2C(C(N)=O)=C(C)Nc3nc(CCCO)nn32)c1OC (centres undefined)	-10.8%
O=C(c1ccccc1)N1CCCOC1c1ccccc1 (centres undefined)	2.1%
O=C(CC1OC(=O)c2ccccc21)NC1CCCCC1 (centres undefined)	-3.0%
O=S1(=O)CCC(NCC2CCCO2)C1 (centres undefined)	2.8%
CCOC(=O)N1CCN(C(=O)c2ccc3c(c2)sc2nc(-c4ccccc4)cn23)CC1	9.6%
CCN(CC)CCCNC(=O)Cn1ncc2c(=O)oc3ccc(C)cc3c21	-0.1%
O=C(NCc1cn2ccsc2n1)Nc1cccc(Cl)c1	-1.5%
O=C(O)C1CCCCC1C(=O)Nc1cnn(Cc2ccccc2)c1 (centres undefined)	9.0%
O=C(NCc1cccs1)C1CCN(c2nc3ccccc3o2)CC1	-2.9%
O=C(COC(=O)C1(c2ccccc2)CC1)N1CCN(c2ccc(F)cc2)CC1	9.0%
Cc1ccc(NC(=O)C(C)N2C(=O)C3CC=C(Cl)CC3C2=O)cc1 (centres undefined)	1.1%
COC(=O)c1nnn(-c2ccccc2)c1N	6.0%
C[C@@](N)(C(=O)O)c1ccc(S(=O)(=O)O)cc1	-1.5%
CCC(=O)n1nc(-c2ccccc2)nc1NCc1ccccc1	288.3%[activator]
COC(=O)c1cc(Br)c(=O)n(Cc2ccncc2)c1	2.9%
C=CCn1c(SCc2csc(C)n2)nc2sc3c(c2c1=O)CCCCC3	-19.1%
CC(=O)Nc1ccc(NC(=O)c2ccccc2N(C)S(C)(=O)=O)cc1	4.4%
O=C(NCc1ccccc1)c1cccc(NC(=O)c2ccco2)c1	7.3%
O=C(c1ccccc1)N(CCN1CCOCC1)C1(C(=O)Nc2ccccc2)CCCCC1	6.0%
COc1ccc(CC(=O)OCC(=O)Nc2c(C)n(C)n(-c3ccccc3)c2=O)cc1	-6.8%
Cc1cc2cc(CNC(=O)CC(C)C)ccc2n1C	?
O=C(CSc1nc2c(sc3ccccc32)c(=O)n1Cc1ccco1)NCC1CCCO1 (centres undefined)	25.1µM*
Cc1ccccc1C(=O)NC1CC(C)(C)NC(C)(C)C1	2.6%
Cc1oc(-c2ccc(Cl)cc2)nc1CN1CCC(C(=O)NCc2cccnc2)CC1	4.2%
c1ccc2c(-n3cccn3)cccc2c1	-0.1%
COC(=O)c1cc(OC)c(OC)cc1NC(=O)C1CCC(=O)N1S(=O)(=O)c1ccc(C)cc1 (centres undefined)	317.1%[activator]
COc1nnc(OC)c2ccccc12	1.4%
CCN(CC)S(=O)(=O)c1cccc(-c2nnc(SCC(=O)c3cc(C)n(C)c3C)o2)c1	-8.9%
CCCS(=O)(=O)NCCc1cc2c(OC)ccc(OC)c2[nH]c1=O	-8.5%
O=C(C1CCC(=O)N1Cc1cccnc1)N1CCN(c2ccc(F)cc2)CC1 (centres undefined)	7.1%
COc1cccc(OC)c1OCCCCN1CCCC1	9.1%
O=C(Nc1nc2ccccc2n1CCN1CCCCC1)c1ccco1	-5.3%
Cc1cc(NC(=O)CCCC(=O)N(CC(=O)NC2CCCCC2)c2ccccc2)no1	31.6µM*

7 structures from above, arranged by heavy-atom count, rising:
SMILES	HSD17B inh
c1ccc2c(-n3cccn3)cccc2c1	-0.1%
Cc1ccccc1C(=O)NC1CC(C)(C)NC(C)(C)C1	2.6%
O=C(Nc1nc2ccccc2n1CCN1CCCCC1)c1ccco1	-5.3%
O=C(C1CCC(=O)N1Cc1cccnc1)N1CCN(c2ccc(F)cc2)CC1 (centres undefined)	7.1%
CCN(CC)S(=O)(=O)c1cccc(-c2nnc(SCC(=O)c3cc(C)n(C)c3C)o2)c1	-8.9%
O=C(c1ccccc1)N(CCN1CCOCC1)C1(C(=O)Nc2ccccc2)CCCCC1	6.0%
COC(=O)c1cc(OC)c(OC)cc1NC(=O)C1CCC(=O)N1S(=O)(=O)c1ccc(C)cc1 (centres undefined)	317.1%[activator]

(next part)
SMILES	HSD17B inh
CCC(=O)Nc1ccc(C(=O)Cn2nc(C(=O)O)c3ccccc3c2=O)cc1	-1.7%
CC(C)(C)OCC1CO1 (centres undefined)	5.3%
O=C(Nc1ccc2c(c1)C(=O)N(C1CCCCC1)C2=O)C1CCCO1 (centres undefined)	25.1µM*
OC(COc1c(Cl)cc(Cl)cc1Cl)CN1CCCCC1 (centres undefined)	-1.0%
O=C(O)C1CCCCC1C(=O)OCCCCOC(=O)C1CCCCC1C(=O)O (centres undefined)	-1.0%
CCn1c(SCC(=O)c2cccs2)nnc1-c1ccco1	-15.3%
CC1(C)CC(=O)C2=C(C1)Nc1[nH]n(-c3ccccc3)c(=O)c1C2c1ccc2c(c1)OCO2 (centres undefined)	-5.1%
CCOC(=O)c1ccc(Cn2cnc3ccccc3c2=O)cc1	0.5%
N[C@@H]1C=CC=C(C(=O)O)C1	-4.6%
COc1cc(NS(=O)(=O)c2ccc(NC(=O)COc3ccccc3C)cc2)nc(OC)n1	-8.9%
CCCCn1c(SCC(=O)N2CCC(C(=O)OCC)CC2)nc2cc(S(N)(=O)=O)ccc21	5.4%
Cn1ccnc1SC(=O)N1c2ccccc2Sc2ccccc21	-13.4%
C#CCCCCCCCCCCCC(O)CC(O)CO (centres undefined)	-2.1%
N#Cc1nc(COc2ccc(Br)cc2)oc1NCCCn1ccnc1	2.1%
COc1ccc(Nc2nccc3c2nnn3C)cc1	-3.4%
Cc1nc(NC(C)c2ccccc2)c2oc3ccccc3c2n1 (centres undefined)	-18.5%
CCCc1cc(C(=O)Nc2cc(C)nn2-c2ccccc2)no1	7.6%
CCOC(=O)N1CC=C2C(C#N)=C(N)C(C#N)(C#N)[C@H](c3ccccc3OCC)[C@H]2C1	72.2%[activator]
CN1CCN(C2=C(Cl)C(=O)N(c3cccc(Cl)c3)C2=O)CC1	-9.2%
O=C(NCc1cccnc1)c1cccc(C(F)(F)F)c1	1.1%
CC1(C)Cc2noc(N)c2C(C)(C)N1OC(=O)c1scc2c1OCCO2	-4.9%
N#CC(C#SN)=C1CCCCC1	?
O=C(Cn1[nH]c(=O)c2ccccc2c1=O)Nc1cccc(-c2nnc3n2CCCCC3)c1	1.8%
CCCCN(CC)CCNS(=O)(=O)c1cccc2cccnc12	-0.8%
Cc1ccc2oc(-c3ccc(NC(=O)CC(C)C)cc3)nc2c1	31.6µM*
N#CCn1c(C2CCCCC2)nc2ccccc2c1=O	-4.6%
Cc1cnc(NC(=O)CN2CCN(c3ccccn3)CC2)s1	-0.8%
CNC(=O)CCC(=O)Nc1ccc(C(=O)OC)cc1	0.4%
O=C(Nn1cnnc1)c1ccccc1-c1ccccc1	8.3%
CC(=O)Nc1cccc(Oc2nc(C)cc(C)c2C#N)c1	1.1%
O=C(CCn1cccc1)NCCc1ccc(Cl)cc1	-0.5%
O=C(CN1CCN(CCC(=O)Nc2ccccc2F)CC1)Nc1ccc(Cl)cc1	7.1%
O=C(NC1CCCC1)C(c1ccccn1)N(C(=O)c1csnn1)C1CC1 (centres undefined)	-2.1%
CCOc1ccccc1N(CC(=O)Nc1ccc(C)cc1)S(C)(=O)=O	8.3%
COc1ccc(N2CCN(C(=O)Cc3nn(C)c(=O)c4ccccc34)CC2)cc1	3.6%
CCOC(=O)c1[nH]c(C)c(C(=O)N(C)Cc2ccccc2)c1C	3.1%
Cc1cc(C)n(-c2ccc(C(=O)OCn3nnc4ccccc4c3=O)cc2)n1	-18.5%
COc1ccc(N/C=C2\CCOC2=O)cc1	-7.6%
Cn1cnnc1SCC(=O)NCc1cccc(C(F)(F)F)c1	6.0%
CSc1nc2c(c(=O)[nH]1)C(c1ccncc1)C(C(=O)OC(C)C)=C(C)N2 (centres undefined)	-0.2%
CC(=O)c1cccc(NC(=O)CCOc2ccccc2)c1	9.3%
CC(C)NC(=O)C1CC(=O)N(c2ccc(F)c(Cl)c2)C1 (centres undefined)	-7.7%
CCOC(=O)c1cnc(Nc2nc3ccccc3o2)nc1CSc1ncccn1	7.5%
O=C1CCCC/C1=C\Nc1ccc(O)cc1	?
C=CCSc1nnc(NC(=O)c2ccc(S(=O)(=O)NCC3CCCO3)cc2)s1 (centres undefined)	?

Structural class, the entries above containing bromine (two)
SMILES	HSD17B inh
COC(=O)c1cc(Br)c(=O)n(Cc2ccncc2)c1	2.9%
N#Cc1nc(COc2ccc(Br)cc2)oc1NCCCn1ccnc1	2.1%

Entries shown so far with a CF3 group, in the order listed:
SMILES	HSD17B inh
O=C(NCc1cccnc1)c1cccc(C(F)(F)F)c1	1.1%
Cn1cnnc1SCC(=O)NCc1cccc(C(F)(F)F)c1	6.0%

(further entries)
SMILES	HSD17B inh
COc1ccccc1-c1nccc(NCc2cccc(C)c2)n1	0.9%
O=C1C2C3C=CC(CO)(O3)C2C(=O)N1c1ccc(-c2ccccc2)cc1 (centres undefined)	20µM*
COC(=O)c1cc(C(=O)OC)cc(N2C(=O)CN=C2Nc2nc(C)cc(C)n2)c1	-27.4%
CC(C)CCNc1cc(=O)n(C)c(=O)n1C	7.1%
Cc1cc2c(c(N)n1)c(=O)oc1ccccc12	7.94µM*
O=C(c1ccc(NS(=O)(=O)c2ccccc2)cc1)N1CCCC1	0.4%
COCCCNC(=O)c1ccc(N(C)S(=O)(=O)c2ccc(OC)cc2)cc1	5.7%
O=C(Cc1c(C(=O)O)[nH]c2ccccc12)Nc1ccc2c(c1)OCO2	1.2%
CN(Cc1ccco1)c1nc(-c2ccc3c(c2)OCO3)nc2ccccc12	?
CCCc1cc2c(=O)c(-c3ccccn3)coc2cc1OC	7.5%
COCCN1C(=O)C(O)=C(C(=O)c2ccco2)C1c1cccc(Oc2ccccc2)c1 (centres undefined)	-2.2%
Cc1cc(C)n2nc(SCC3COc4ccccc4O3)nc2n1 (centres undefined)	?
CCCn1c2c(c(O)c(C(=O)Nc3ccc(C)cn3)c1=O)CCCC2	10.4%
O=C(NCc1ccc2c(c1)OCO2)C1CCC(CNS(=O)(=O)c2ccccc2)CC1 (centres undefined)	-0.1%
CC(NC(=O)c1ccc(F)cc1)C(c1cccs1)N1CCN(C)CC1 (centres undefined)	2.2%
O=C(NC1CCCCCC1)C1CCCN(S(=O)(=O)c2cnc[nH]2)C1 (centres undefined)	8.9%
Cc1cc(N2CCN(c3ccccc3F)CC2)nc2cc(O)ccc12	3.8%
C[N+]1(C)CCC(OC(=O)C(c2ccccc2)c2ccccc2)CC1	-7.3%&-3.2%
Nc1nc(-c2ccc(Cl)c(Cl)c2)c(-c2ccncc2)s1	?
Cc1ccc(NC(=O)c2cc(S(=O)(=O)N3CCOCC3)ccc2F)c(C)c1	6.9%
CCOC(=O)c1cnn2c(N)c(C#N)nnc12	-2.0%
CCOC(=O)c1[nH]c(=O)c2ccccc2c1O	-9.0%

High-throughput results: PubChem, National Center for Advancing Translational Sciences (NCATS)

Not all compounds are listed, so the mix of outcomes need not match the whole.
